# gsp antagonist = antagonizes gsp, the McCune-Albright syndrome mutation; gsp-mutant cells, cAMP HTRF, 30 min; control for the full effect not named in the record; Potency, µM (series often up to 76.9 µM), for the others: at the top dose activity change, negative = inhibition, usual class: inhibitors; 0.4% of 340,000 active; AID 624288; active = falling curve of any shape with a large fitted effect; inconclusive = falling curve, mostly with a smaller effect; inactive = flat or rising curve; cell line not stated here;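 further: intracellular cAMP measured with PDE inhibitor Ro 20-1724 present during compound exposure; potency means the concentration at half of the fitted maximal effect; on the % scale 0 is the no-effect control and ±100 the full control effect; nearly all actives have a fitted effect of over 65% in size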
#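 Measurement of cellular cAMP by homogeneous time-resolved fluorescence following a 30 min compound exposure at 37C. The PDE inhibitor […] was present throughout; the assay buffer was DPBS with 0.05% BSA and 0.005% Tween 20.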
# TRPV1 potentiator = potentiators of human vanilloid receptor 1 (TRPV1); Q8NER1; TRPV1-expressing cells, Fluo-8 calcium influx, capsaicin EC20 potentiation; host cell line not named in the record; control for the full effect not named in the record; potentiation, % at 8.33 µM; 0.02% of 320,000 active; AID 540277; active means potentiation above 80%; inconclusive means 30% to 80%; inactive means below 30%; further: 0% is about no effect
#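 TRPV1-expressing cells were cultured overnight at 35.5C and loaded with Fluo-8 calcium dye for 40 to 90 min at room temperature. After a 10 s baseline, compound was added and calcium influx was read kinetically for 3 min (ex 480/em 520 nm).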
# TRPML1 inh = human mucolipin-1 channel inhibition. AID 624415. 0.02% of 390,000 active. Q9GZU1. TRPML1-inducible cells, Ca2+ dye fluorescence, FDSS; active compounds read low; inhibition of EC80 agonist-evoked calcium signal. activity change, negative = inhibition, % (no concentration beside the values); in the data active means activity change below about -50%; inconclusive means about -30% to -50%; inactive means above about -30%;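 further: stimulus is agonist 54-4 at its EC80 concentration; on the % scale 0 is the no-effect control and ±100 the full control effect; compound concentration not given in the record; the text of the record puts the active cut at -80%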
# Target sequence (Q9GZU1 whole entry, looked up): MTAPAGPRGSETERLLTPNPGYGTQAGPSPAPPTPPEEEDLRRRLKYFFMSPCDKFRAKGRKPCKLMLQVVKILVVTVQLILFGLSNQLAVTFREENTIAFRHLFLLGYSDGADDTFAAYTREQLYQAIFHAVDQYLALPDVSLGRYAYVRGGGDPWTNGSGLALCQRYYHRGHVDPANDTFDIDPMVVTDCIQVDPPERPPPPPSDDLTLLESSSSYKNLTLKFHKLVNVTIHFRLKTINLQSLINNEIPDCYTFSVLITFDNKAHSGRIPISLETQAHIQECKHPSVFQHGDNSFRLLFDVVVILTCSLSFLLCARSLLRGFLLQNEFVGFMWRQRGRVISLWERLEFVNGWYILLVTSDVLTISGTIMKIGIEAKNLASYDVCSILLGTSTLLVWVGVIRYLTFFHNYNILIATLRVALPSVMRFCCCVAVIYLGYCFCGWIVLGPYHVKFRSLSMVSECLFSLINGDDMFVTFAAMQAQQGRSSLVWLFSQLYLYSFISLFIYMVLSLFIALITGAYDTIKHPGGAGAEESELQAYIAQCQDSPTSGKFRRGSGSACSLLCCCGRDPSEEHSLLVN
#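 TRPML1-DL cells, Tet-induced overnight (~16 h, 37 °C) at 1,500 cells/well, were loaded with Ca8 no-wash dye plus quencher for 45-90 min at room temperature. Compounds were pinned during FDSS kinetic reading; agonist 54-4 at EC80 (4 uM final) then added.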
# ClpP mod = qHTS Assay for Activators of ClpP; ATP-dependent Clp protease proteolytic subunit (Bacillus subtilis (strain 168)), P80244; Potency, µM (top dose mostly 57.5 µM), for the others: at the top dose activity change, negative = active; AID 651965, 2013; 1.9% of 340,000 active; purified B. subtilis ClpP, FRET peptide cleavage, 20 min; active = well fitted falling curve with a large enough effect; inconclusive = small, poorly fitted or top-dose-only effect; inactive = no such curve, though single readings can be large or run the other way; further: potency means the concentration at half of the fitted maximal effect; the source files actives as falling curves though it sought activators and does not explain the sign; nearly all actives have a fitted effect of over 65% in size; many hits overshoot -100%
# Target sequence (P80244 whole entry, looked up): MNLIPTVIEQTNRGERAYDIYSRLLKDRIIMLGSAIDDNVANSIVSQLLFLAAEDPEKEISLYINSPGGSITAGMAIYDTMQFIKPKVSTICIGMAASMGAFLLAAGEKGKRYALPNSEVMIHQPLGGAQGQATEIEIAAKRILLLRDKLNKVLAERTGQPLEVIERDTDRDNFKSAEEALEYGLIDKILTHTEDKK
#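 Purified B. subtilis ClpP, 10 microg/mL final in Tris/HCl pH8 with KCl, BSA, glycerol and Tween-20, cleaved an Abz/nitrotyrosine-quenched decapeptide. Fluorescence (ex 320, em 430) was read at 0 and 20 min at room temperature. Delta was normalized to 5.8 microM ADEP and DMSO/no-enzyme controls.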
# Menin MLL FP FL = inhibitors of human menin-MLL interaction, wild-type MLL peptide; Fluorescence polarization, fluorescein-MLL peptide displacement from menin; FP activity change, % at 61.4 µM; 290,000 tested, under 10 active; AID 1766; inconclusive = falling polarisation curve, or a change in total fluorescence; inactive = total fluorescence flat and polarisation flat or rising; no compound was filed as active; the % refers to the polarisation; negative = inhibition;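 further: % of control where 0% means no effect; inhibitors lower the polarisation; unlabelled MLL peptide was the positive control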
# gsp ag = agonists of gsp mutant (McCune-Albright syndrome). AID 624287. 0.13% of 340,000 active. Potency, µM (series often up to 76.9 µM), for inactives: at the top dose activation (cAMP increase), most hits filed as activators. gsp mutant cells, cAMP HTRF, 30 min; control for the full effect not named in the record; active = well fitted activation curve with a large enough effect; inconclusive = small, poorly fitted or top-dose-only effect, or another doubt; inactive = no such curve, though single readings can be large or run the other way; cell line not stated here;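 further: phosphodiesterase inhibitor Ro 20-1724 added with compounds to block cAMP breakdown; potency means the concentration at half of the fitted maximal effect; nearly all actives have a fitted effect of over 60% in size; about a fifth of the inactives were tested at one dose only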
#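 Cells in DMEM/10% FBS with G418 were pretreated with compounds in DMSO plus […] (300 uM stock) for 30 min at 37C. cAMP was measured by HTRF (cAMP-d2 plus anti-cAMP antibody-K) after 30 min at room temperature.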
# Sfp inh = blocks B. subtilis Sfp PPTase activity; Q9F4F7; 3.5% of 310,000 active; Potency, µM, inactives show max response, negative = inhibition, most hits filed as inhibitors; Biochemical Sfp PPTase activity, qHTS; active means well fitted inhibition curve with a large enough effect; inconclusive means small, poorly fitted or top-dose-only effect, or another doubt; inactive means no such curve, though single readings can be large or run the other way;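 further: the enzyme is Sfp with the accession as filed and its product quenches rhodamine fluorescence; potency means the concentration at half of the fitted maximal effect; 0% = enzyme reaction without inhibitor and -100% = no enzyme wells; top concentration of the series not given in the record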
#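 Reaction rates are the 30-min fluorescence difference (ex 525, em 598 nm) in wells containing 15 nM Sfp, 5 uM rhodamine-CoA and 12.5 uM BHQ-2-YbbR at pH 7.6 with 10 mM MgCl2.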
# * hit, by the source's call; ? = inconclusive; · = not tested or not shown; [ ] = dose if it differs, or a comment. Random draw from the library; about 4.9% have a hit in one of these screens.
SMILES,gsp antagonist,TRPV1 potentiator,TRPML1 inh,ClpP mod,Menin MLL FP FL,gsp ag,Sfp inh
COc1ccc(NC(=S)Nc2ncccc2C)c(OC)c1,-8%,19,13,-2.1%,-1.3,-47%[inhibitor],-26%
CCOc1ccc(NC(=O)COC(=O)c2c[nH]c3ccccc23)cc1,·,·,-10,-4.7%,·,-39%[inhibitor],·
CCOC(=O)N1CCN(C(=O)C2CCN(S(=O)(=O)c3cc(Cl)ccc3Cl)CC2)CC1,-16%,-3,-2,0.7%,-1.7,7%,6%
C#CC(CCN1CCCCC1)(OC)c1ccccc1 (centres undefined),7%,5,·,-3.0%,0.7,-17%,23%
Cc1cc(C)nc(NNS(=O)(=O)c2c(F)cc(F)cc2Br)n1,27%,·,11,1.3%,·,8%,·
O=C(c1ccco1)N1CCN(C(=O)c2ccc(CS(=O)c3ccc(Br)cc3)o2)CC1 (centres undefined),·,·,9,-0.9%,·,4%,·
COC(=O)Nc1ccc(NC(C)=O)cc1,5%,-3,30,-8.2%,-0.8,-9%,16%
O=c1nc(-c2ccccc2Cl)c2cc(F)ccc2[nH]1,-1%,0,·,3.6%,0.0,3%,20%
Cc1noc(C)c1S(=O)(=O)N(C)CC(=O)Nc1ccc(F)cc1,8%,-4,11,1.7%,1.1,-4%,26%
O=C(O)C(CCC(C(=O)O)c1ccccc1)c1ccccc1 (centres undefined),8%,·,9,·,·,7%,·
CCN(CC(=O)Nc1c(F)cccc1F)C(=O)CN1c2cccc3cccc(c23)S1(=O)=O,2%,4,18,·,·,12%[15.4 µM],·
Cn1c(CO)cnc1S(=O)(=O)Cc1c(Cl)cccc1Cl,6%,?,3,-1.2%,7.0,-31%[inhibitor],13%
CCC(CC)C(=O)Nc1cc(=O)n(C)c(=O)n1C,7%,-5,31,0.2%,2.3,-24%,24%
COc1ccc(Cl)cc1NC(=O)C/C(C)=N/NC(=O)COc1ccc(C)cc1,-7%,12,-7,·,·,-8%[15.4 µM],-2%
O=C(O)CSc1nnc(Nc2ccccc2)n1-c1ccccc1,-11%,-9,-2,·,0.0,0%[15.4 µM],-40%
COc1ccc(Cl)cc1NC(=O)CN(C)C(=O)c1cc2c(s1)CCCC2,?,12,11,-2.8%,·,-3%,·
CCN1CCN(CC(O)COC(c2ccccc2)c2ccccc2)CC1 (centres undefined),13%,-3,6,·,-1.9,-41%[inhibitor],2%
CC(C)NC(=O)N(O)C1N(C(C)C)C(=O)N(Cc2ccc3c(c2)OCO3)C1(C)C (centres undefined),-8%,·,-2,-0.3%,-2.3,6%[15.4 µM],7%
CC1CCc2cc(F)ccc2N1C(=O)c1ccc2c(c1)OCO2 (centres undefined),-12%,-17,0,-1.9%,1.1,-1%,11%
Cc1nc(NS(=O)(=O)c2cccs2)c2c3c(sc2n1)CCC3,?,16,-16,-6.3%,3.7,0%,-5%
O=C(COC(=O)c1ccccc1SCC(=O)N1CCCC1)NC1CCCCC1,-9%,-1,6,-1.1%,·,-2%[15.4 µM],·
O=C(c1ccccc1)N1CCc2[nH]nc(-c3ccccc3)c2C1,-9%,2,-8,1.5%,·,26%,11%
Cc1n[nH]c(=S)n1/N=C/c1ccccc1,-6%,1,5,-22%,-1.0,0%,4%
CC(=O)NC(c1ccc(Cl)cc1Cl)c1ccc2cccnc2c1O (centres undefined),3%,-15,30,-1.9%,7.2,-26%,-5%
CC(C)(C)n1nnnc1CN(Cc1ccc(F)cc1)Cc1ccco1,-6%,11,79,0.5%,0.3,?,-1%

# Carrying on:
SMILES,gsp antagonist,TRPV1 potentiator,TRPML1 inh,ClpP mod,Menin MLL FP FL,gsp ag,Sfp inh
O=C1C=CC(=O)N1c1ccc2c(c1)C(NC(=O)C(F)(F)F)c1ccccc1-2 (centres undefined),7%,·,35,-2.9%,·,0%,·
CCC(C)(C)NC(=O)C(c1ccco1)N(C(=O)Cn1nnc2ccccc21)c1ccc2c(c1)OCO2 (centres undefined),-2%,?,-5,0.5%,1.4,6%,2%
COc1ccc(NC(=O)NCCN2CCc3ccccc3C2)cc1,-13%,-8,10,1.5%,-0.6,-25%,-9%
COc1ccccc1-n1cnnc1SCC(=O)Nc1cccc(S(N)(=O)=O)c1,-6%,2,-10,·,-6.0,-12%[15.4 µM],11%
COc1ccc(NS(=O)(=O)c2ccc(C)c(C(=O)NNC(=O)c3ccccc3O)c2)cc1,-10%,10,-7,72%,·,-38%[inhibitor],·
COc1ccc(CC2(C)OC(c3ccccc3)=NN2C(C)=O)cc1 (centres undefined),12%,-26,-6,-2.6%,·,-13%,-6%
COC(=O)/C(C#N)=C/c1c(-c2ccccc2)nc2n1CCS2,0%,7,9,·,-0.7,?,-2%
Cc1ccc(OCc2cc(C(=O)N(C)CCc3ccccn3)no2)cc1C,-3%,-14,13,-1.2%,0.7,?,-12%
COc1ccc(OC)c(NC(=O)C2CC(C)=C(C)CC2C(=O)O)c1 (centres undefined),-5%,-3,15,-2.2%,-1.8,6%,2%
CCCCOC(=O)C(C)c1c(C)[nH]c(=S)[nH]c1=O (centres undefined),1%[15.4 µM],-9,-22,0.9%,-0.6,2%,-3%
Nc1nnc(SCc2ccccc2Cl)s1,6%,4,-2,3.0%,4.0,-7%,13%
CCn1cc(C(=O)NCc2cccc(F)c2)c(=O)c2cc(F)c(N3CCN(C(=O)c4ccco4)CC3)cc21,?,3,-12,25µM*,0.1,2%,-16%
COc1ccc(CCCc2nnc(SCc3nc4ccccc4c(=O)[nH]3)n2C)cc1,0%,-3,-3,·,?,0%[15.4 µM],22%
Cc1ccc(CSc2nnnn2C)cc1,5%,-1,12,-6.5%,-0.6,-42%[inhibitor],16%
NC(=O)C1(N2CCCCC2)CCN(C(=O)c2ccc(C#CC3(O)CCCCC3)cc2)CC1,1%,-3,-3,0.6%,-0.9,0%,7%
COc1ccccc1NC(=S)N1CCN(c2ncccn2)CC1,13%,12,14,·,-3.4,-3%[15.4 µM],7%
O=C(N/N=C/c1ccc(Cl)cc1Cl)c1cccc(F)c1,?,-17,42,-3.3%,1.9,-3%,20µM*
CCOc1ccc(NC(=O)C2CCCN2C(=O)NC2CCCCC2)cc1 (centres undefined),5%,9,15,0.9%,·,-2%[15.4 µM],19%
Cc1cc(SCC(=O)N/N=C/c2ccccc2C(=O)O)c(C)cc1Br,0%,-6,1,·,5.0,16%,6%
O=C(NNC(=O)c1ccc([N+](=O)[O-])cc1)c1ccc(F)cc1,8%,·,13,·,·,-7%,·
COc1ccc(CN2CC(=O)N(c3ccc(Cl)cc3)C2=S)cc1OC,-11%,-19,-12,-1.3%,3.6,-50%[inhibitor],-7%
CCN1CCN(C(CNS(=O)(=O)c2ccc(Br)cc2)c2cccnc2)CC1 (centres undefined),6%,1,-2,1.1%,·,-2%[15.4 µM],9%
Cc1ccc(N(C)S(=O)(=O)c2cccc(C(=O)N(C)Cc3cnn(-c4ccccc4)c3)c2)cc1,?,-17,24,-1.6%,·,1%[15.4 µM],·
CCOC(=O)c1ccccc1NC(=O)COC(=O)CCC(=O)N1CCOCC1,0%,15,3,?,3.8,3%,7%
Cc1ccc(S(=O)(=O)N2CCCc3ccccc32)cc1,·,·,74,-3.0%,·,20%,·

# Additional structures follow.
SMILES,gsp antagonist,TRPV1 potentiator,TRPML1 inh,ClpP mod,Menin MLL FP FL,gsp ag,Sfp inh
O=C(NNC(=O)c1ccccc1Cl)c1ccc2c(c1)OCCO2,9%,·,-8,-1.7%,·,-2%,·
CC(=O)Nc1cc(C(F)(F)F)ccc1Oc1cccc(Br)c1,-5%,·,6,1.9%,0.7,16%,20%
Cn1c(Cn2cnc([N+](=O)[O-])n2)nnc1SCC(=O)Nc1cccc(Cl)c1,13%,-6,3,-1.9%,0.6,-5%[15.4 µM],8%
O=C(Cn1cc([N+](=O)[O-])cn1)N1CCN(Cc2ccc3c(c2)OCO3)CC1,-24%,-5,-2,·,3.8,20%[15.4 µM],18%
O=C(Cc1ccccc1)N/N=C/c1ccc(OCC(=O)Nc2ccccc2)cc1,-11%,29,-5,0.9%,2.8,-14%,-8%
OCCC1CN(Cc2ccccc2-c2ccco2)CCN1C1CCCC1 (centres undefined),7%,-4,11,0.5%,-2.4,-20%,-3%
Cc1ccc(C(=O)Nc2ccc(C(=O)N/N=C/c3cccnc3)cc2)cc1,7%,-4,-6,·,-2.8,3%,-5%
Cc1c(NC(=O)c2ccc(C(=O)Nc3c(C)n(C)n(-c4ccccc4)c3=O)cc2)c(=O)n(-c2ccccc2)n1C,10%,21,-13,-2.6%,2.2,1%,12%
Cc1ccccc1-n1c(-c2ccoc2C)n[nH]c1=S,-5%,15,-16,0.8%,0.5,2%,-13%
Cn1cc([N+](=O)[O-])c(C(=O)Nc2cc(Oc3ccccc3)cc([N+](=O)[O-])c2)n1,0%,5,-3,3.3%,1.2,?,-9%
COc1ccc(CCN(C)c2ccc(C(N)=O)cc2[N+](=O)[O-])cc1OC,2%,12,8,-0.2%,0.5,?,7%
CCCNC(=O)CS(=O)Cc1nc(-c2cccc(OC)c2)oc1C (centres undefined),-3%,·,-8,-13%,1.0,13%,-1%
COc1cc(-n2c(C)nc3cc(C(=O)N4CCOCC4)ccc32)cc(OC)c1OC,1%[15.4 µM],-8,16,-0.9%,3.4,8%,5%
C=CCSc1nc2c(c(=O)[nH]c(=O)n2C)n1CC,3%,-2,20,-1.2%,3.6,7%,14µM*
CNS(=O)(=O)c1cccc2nsnc12,15%,-11,10,0.6%,-1.4,?,0%
Cc1cccc(NC(=O)c2nnn(-c3cccc(C(F)(F)F)c3)c2N)c1,10%,-17,4,-0.9%,3.5,-2%[15.4 µM],1%
Fc1ccc(-c2nn(-c3ccccc3)cc2CNCc2ccccc2)cc1,-8%,1,-8,·,2.5,0%[15.4 µM],?
Cc1c(NC(=O)c2ccc3c(c2)OCO3)cccc1-c1nc2ccccc2o1,-25%,-4,-7,20%,1.0,8%,-15%
